Source: PubChem
TRPML1 blocker: human mucolipin-1 channel inhibition | Q9GZU1 | TRPML1-inducible cells, Ca2+ dye fluorescence, FDSS; active compounds read low; inhibition of EC80 agonist-evoked calcium signal | activity change, negative = inhibition, % (concentration not given with the values) | actives 0.02% (n = 390,000) | AID 624415; in the data active means activity change below about -50%; inconclusive means about -30% to -50%; inactive means above about -30%;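 further: stimulus is agonist 54-4 at its EC80 concentration; on the % scale 0 is the no-effect control and ±100 the full control effect; the text of the record puts the active cut at -80%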
Target sequence (Q9GZU1 whole entry, looked up): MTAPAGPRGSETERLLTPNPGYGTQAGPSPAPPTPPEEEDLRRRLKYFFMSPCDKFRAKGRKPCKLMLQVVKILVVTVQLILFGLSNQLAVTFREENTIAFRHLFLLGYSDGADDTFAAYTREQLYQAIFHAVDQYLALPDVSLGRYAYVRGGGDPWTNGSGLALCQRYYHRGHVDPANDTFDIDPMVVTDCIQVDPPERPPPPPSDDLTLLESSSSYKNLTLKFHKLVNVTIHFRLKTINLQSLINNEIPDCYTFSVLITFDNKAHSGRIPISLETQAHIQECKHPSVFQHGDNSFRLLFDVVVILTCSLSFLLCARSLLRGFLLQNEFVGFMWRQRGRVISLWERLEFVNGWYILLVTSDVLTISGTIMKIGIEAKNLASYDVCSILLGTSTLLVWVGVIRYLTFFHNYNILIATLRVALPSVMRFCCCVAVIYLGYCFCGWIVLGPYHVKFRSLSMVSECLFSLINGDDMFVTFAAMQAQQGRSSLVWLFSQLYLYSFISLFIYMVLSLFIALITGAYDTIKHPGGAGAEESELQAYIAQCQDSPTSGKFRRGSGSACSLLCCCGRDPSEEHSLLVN
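TRPML1-DL cells, Tet-induced overnight (~16 h, 37 °C) at 1,500 cells/well, were loaded with Ca8 no-wash dye plus quencher for 45-90 min at room temperature. Compounds were pinned during FDSS kinetic reading; agonist 54-4 at EC80 (4 uM final) then added.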
TRPML1 ag: human mucolipin-1 channel agonism | activation, % (no concentration beside the values) | AID 624414 | TRPML1-expressing cells, Ca2+ dye fluorescence, FDSS; host cell line not named in the record; reference of the full effect not given here | actives 0.12% (n = 410,000) | Q9GZU1; in the data active = activation above about 50%; inconclusive = about 30% to 50%; inactive = below about 30%; further: 0% is about no effect; the text of the record puts the active cut at 80%
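In this qHTS format, compounds were pin-transferred onto Ca8-dye-loaded TRPML1-DL cells induced with Tet overnight, and intracellular Ca2+ fluorescence was recorded kinetically for 110 s after a 10 s baseline. A subsequent 4uM final 54-4 (EC80) addition followed by a second 110 s read served as the antagonist phase.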
D2 potentiator: potentiates the human D2 dopamine receptor allosterically. P14416. DiscoveRx D2 beta-arrestin cells, luminescence, 90 min; 100% = 57 uM dopamine signal. potentiation, % (concentration not given with the values). actives 0.23% (n = 360,000). AID 624464; active = potentiation of 50% or more; inconclusive = 30% to 50%; inactive = 30% or less;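 further: compound concentration not given in the record; tested on top of an EC20 dose of dopamine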
Target sequence (P14416 whole entry, looked up): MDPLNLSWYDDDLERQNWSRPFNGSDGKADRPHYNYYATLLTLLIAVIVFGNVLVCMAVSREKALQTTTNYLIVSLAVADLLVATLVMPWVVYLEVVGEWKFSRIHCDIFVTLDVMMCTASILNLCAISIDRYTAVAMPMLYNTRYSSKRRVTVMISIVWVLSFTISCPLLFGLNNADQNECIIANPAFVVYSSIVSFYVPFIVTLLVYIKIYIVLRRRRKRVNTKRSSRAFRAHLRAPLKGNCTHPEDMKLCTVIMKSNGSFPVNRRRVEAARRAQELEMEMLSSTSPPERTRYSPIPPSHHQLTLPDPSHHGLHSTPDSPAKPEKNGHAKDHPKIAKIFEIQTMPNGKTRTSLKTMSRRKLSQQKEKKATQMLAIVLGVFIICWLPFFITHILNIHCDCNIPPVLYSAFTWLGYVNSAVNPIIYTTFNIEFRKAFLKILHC
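D2 cells co-treated with compound plus 50 nM dopamine (EC20) for 90 min at 37 deg C to detect potentiation. Beta-arrestin recruitment was read as enzyme-fragment luminescence after 1 h at ambient temperature. Full response was set by 57 uM dopamine.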
Six1-Eya2 blk: Six1/Eya2 interaction inhibition; AlphaScreen GST-Six1/His-Eya2 binding, biochemical; active compounds read low; control for the full effect not named in the record; activity change, % (test concentration not listed); actives 0.56% (n = 360,000); AID 651725; in the data active = activity change below about -65%; inconclusive = about -30% to -65%; inactive = above about -30%; further: on the % scale 0 is the no-effect control and ±100 the full control effect
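Compounds are tested against tagged Six1 and Eya2 proteins bridged by glutathione donor and nickel acceptor beads; after a one-hour incubation at 37 °C without light, AlphaScreen emission is recorded.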
PINK1 expr mod: modulators of PINK1 expression; PINK1 immunofluorescence, high-content cytometry, 24 h; actives 0.2% (n = 410,000); Potency, µM (titrated, usually from 76.6 µM), without a hit: at the highest dose activation (PINK1 increase), hits mostly activators; active = well fitted activation curve with a large enough effect; inconclusive = small, poorly fitted or top-dose-only effect; inactive = flat fitted curve, though single readings scatter; cell line not stated here;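 further: potency means the concentration at half of the fitted maximal effect; % of control where 0% means no effect; nearly all actives have a fitted effect of over 65% in size; a mitochondrial uncoupler was the plate control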
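A stable cell line was treated with compounds at 5 concentrations for 24 hours, with CCCP as control. PINK1 levels and mitochondrial localization were measured by immunofluorescence with mitochondrial, cell and nuclear markers after fixation, read by laser-scanning cytometry.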
D2 ag: agonists of human D2 dopamine receptor (beta-arrestin) | P14416 | DiscoveRx PathHunter D2 beta-arrestin, luminescence, 90 min; 100% = 57 uM dopamine signal | activation, % (concentration not given with the values) | actives 0.084% (n = 360,000); in the data active = activation above about 40%; inconclusive = about 15% to 40%; inactive = below about 15%; further: compound concentration not given in the record; the text of the record calls up to 30% inactive
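Agonist mode: compounds alone added to overnight-plated D2 PathHunter cells for 90 min at 37 C, with 57 uM final dopamine (EC100) defining full response. Beta-arrestin recruitment detected by chemiluminescent reagent, read after 1 h at ambient temperature.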
An asterisk follows results filed as active; u = inconclusive; x = not tested or not shown; & = joins results of further samples; [ ] = another dose, or the depositor's remark.

SMILES	TRPML1 blocker	TRPML1 ag	D2 potentiator	Six1-Eya2 blk	PINK1 expr mod	D2 ag
CCCCCN(C(=O)CCC(=O)OCC(=O)c1ccc(C(C)CC)cc1)c1c(N)n(CCCC)c(=O)[nH]c1=O (configuration not stated)	1.2	1.0	-4.1	2.4	10.2%	-1.4
N=c1n(CCN2CCCCC2)c2ccccc2n1CC(O)c1ccc(Cl)c(Cl)c1 (configuration not stated)	-9.5	-0.3	-16.9	-7.3	0.8%[38.3 µM]	3.2
Cc1cc(F)c(F)c(C(=O)NC2CC2)c1Cl	53.5	0.6	-17.0	2.4	-3.4%[38.3 µM]	-6.2
CCc1nc2c(OCC3CCCCC3)cccn2c1N(C)C(=O)c1ccccc1F	x	8.2	-11.5	-7.7	23.0%	-5.2
C=CCn1c(SCC(=O)Nc2cc(C)on2)nc2sc(CC)cc2c1=O	-16.2	1.4	-3.9	20.9	7.1%	-3.4
CCN1C(=O)/C(=C/c2nc3ccccc3c(=O)[nH]2)c2ccccc21	3.8	0.7	-13.8	-6.4	4.9%	-3.0
Cc1ccc(N2CC(O)CSC2=Nc2ccccc2)cc1 (configuration not stated)	7.5	0.2	-17.5	10.9	-0.2%	-7.6
COc1ccc(C(=O)NCc2nnc(SCC(=O)NC3CCCC3)o2)cc1	u	1.9	-0.5	6.5	-1.3%	7.4
CC(=O)Nc1ccc(S(=O)(=O)N(C)CC(=O)NNC(=O)c2cccs2)cc1	11.3	-0.9	-8.7	-2.6	-0.2%	-1.5
CCC(CO)Oc1cc(NCc2ccc(F)cc2)c2ncn(C(C)C)c2c1 (configuration not stated)	38.8	-0.5	-48.4	-6.7	-0.3%	6.2
CCS(=O)(=O)Nc1ccc(-c2nc3cccnc3s2)cc1	-2.2	-0.3	3.0	-7.3	-0.3%	-1.1
O=C(CSc1nc2ncccc2[nH]1)Nc1c(F)cc(F)cc1Br	-0.4	0.6	0.6	8.3	0.3%	0.3
O=C1NC(c2ccccc2)=C(c2ccc3ccccc3n2)C(c2ccc(F)cc2)N1 (configuration not stated)	-9.5	0.0	-8.2	-0.2	1.8%	-3.5
CC(C)C(=O)Nc1cccc(-c2nc3ccccc3o2)c1	-1.4	-1.0	-2.3	-1.0	3.3%	-3.4
CSc1ncnc2sc(C)c(C)c12	-15.0	-0.2	-14.0	4.5	-2.2%	-3.0
O=C(O)Cn1cc(/C=C2/NC(=O)N(c3ccc(Cl)cc3)C2=O)c2ccccc21	-6.4	-0.5	-1.2	-4.9	2.8%	5.1
CC(C)Cn1c(-c2ccco2)n[nH]c1=S	4.7	-0.3	10.6	0.2	17.2%[38.3 µM]	3.6
COc1ccc(C(=O)Nc2cccc3c2CCCC3)cc1OC	1.0	-0.8	-4.8	-15.6	2.1%	9.2
Cc1cccc(C(=O)N2CCN(CCNC(=O)C(=O)Nc3ccc(F)cc3)CC2)c1	26.6	0.1	-0.7	14.4	-0.2%	-5.6
Cc1cc(OCC(=O)Nc2cc(-c3nc4ccccc4[nH]3)ccc2C)ccc1Cl	11.2	1.1	x	x	2.8%	x
CC(=O)Nc1ccc(S(=O)(=O)NC2CCSc3ccccc32)cc1 (configuration not stated)	1.2	1.1	-2.1	-5.1	1.1%	-1.8
CCOc1ccccc1OCCCC(=O)Nc1ccc(Cl)c(S(=O)(=O)N2CCOCC2)c1	5.8	1.0	-11.2	-0.6	0.4%	-3.4
Cc1nc2c(=O)[nH]c3ccccc3c2o1	4.3	0.4	-35.9	-4.4	1.9%	0.8
O=C(NCc1ccc(F)cc1)C(c1ccc(F)cc1)N(C(=O)c1csnn1)C1CC1 (configuration not stated)	10.6	1.2	-2.6	7.0	0.8%	1.6
CCN(C(=O)c1ccc(=O)n(C)n1)c1c(N)n(Cc2ccccc2)c(=O)[nH]c1=O	-12.1	-0.6	9.5	-0.7	-1.8%	3.8

The final 3 records of the part above open the next one:
SMILES	TRPML1 blocker	TRPML1 ag	D2 potentiator	Six1-Eya2 blk	PINK1 expr mod	D2 ag
Cc1nc2c(=O)[nH]c3ccccc3c2o1	4.3	0.4	-35.9	-4.4	1.9%	0.8
O=C(NCc1ccc(F)cc1)C(c1ccc(F)cc1)N(C(=O)c1csnn1)C1CC1 (configuration not stated)	10.6	1.2	-2.6	7.0	0.8%	1.6
CCN(C(=O)c1ccc(=O)n(C)n1)c1c(N)n(Cc2ccccc2)c(=O)[nH]c1=O	-12.1	-0.6	9.5	-0.7	-1.8%	3.8
O=C(CSc1ncn[nH]1)N1CCCCC1	-6.3	0.0	-5.9	0.7	1.4%	2.1
O=C(N/N=C/c1cccc([N+](=O)[O-])c1)c1nc2ccccc2c(=O)[nH]1	4.8	-1.1	-8.3	-2.9	5.7%	-1.7
CCOC(=O)C1(Cc2cccc(Cl)c2)CCCN(C(=O)c2cc(C)[nH]n2)C1 (configuration not stated)	27.4	-0.6	-9.7	-1.4	0.2%	-2.1
COC(=O)c1cc(C(=O)c2cc(F)ccc2O)cn2c(=O)c3c(C)c(C)sc3nc12	2.9	2.1	-5.9	-4.7	7.1%	-0.9
O=C(COc1ccc(Cl)cc1)NCCS(=O)(=O)N1CCN(c2ccccc2F)CC1	7.7	2.2	-3.8	1.6	2.6%	12.4
C[C@H](O)CNC(=O)c1[nH]cnc1C(=O)Nc1ccc(CNC(=O)OC(C)(C)C)cc1	x	x	x	-2.7	1.9%	9.9
COc1ccc(NC(=S)NNC(=S)Nc2cccc(C(F)(F)F)c2)cc1	17.1	2.0	-7.4	-10.3	3.7%	1.3
CN1C(=O)CC(=O)N(C)c2cc(S(=O)(=O)N(C)Cc3ccccc3)ccc21	25.6&5.7	-0.5&-0.4	0.2	3.0	1.5%&-1.5%	2.1
O=C(/C=C/c1ccccc1)Nc1ccc(Br)cn1	7.0	1.3	-14.8	0.3	5.4%	-4.5
C[C@@H]1CN([C@@H](C)CO)S(=O)(=O)c2ccc(-c3ccc(C(=O)N(C)C)cc3)cc2O[C@@H]1CN(C)Cc1ccccc1C(=O)O	-1.1	0.1	1.9	-5.8	-1.5%	-2.7
O=C(Nc1ccc2c(c1)OCO2)c1ccc2sc([C@H]3C[C@H](O)[C@@H](CO)O3)nc2c1	x	-0.4	-5.6	-5.8	1.0%	-3.1
C=CCOC(=O)C1=C(C)NC(=O)NC1C1CC=CCC1 (configuration not stated)	8.9	4.8	10.7	-0.4	1.9%	-1.6
CCOC(=O)CCC(=O)N1CCOCCN(C(=O)CCC(=O)OCC)CCOCC1	-13.7	-0.5	11.3	2.3	0.2%	-2.5
CCCCCOc1ccc(C(=O)NCC2(c3ccccc3)CCOCC2)cc1	20.5	2.9	-4.1	0.8	-2.8%[38.3 µM]	4.0
CN(C(=O)c1cc2ccccc2o1)c1c(N)n(Cc2ccccc2)c(=O)[nH]c1=O	11.5	-0.3	-3.3	3.6	-0.1%	-2.3
CC[n+]1c(C)n(-c2ccccc2)c2ccc(C(=O)OC)cc21	-8.5	0.1	-1.8	3.0	0.3%	-0.8
O=C(NC1CC1)c1cccc2c1C(=O)c1ccc(N3CCC(Cc4ccccc4)CC3)cc1S2(=O)=O	-0.4	u	-13.4	9.5	-0.9%	-1.9
O=C(/C=C/c1ccccc1[N+](=O)[O-])NC1CCCC1	15.8	1.8	-21.1	1.2	0.5%	-1.9
COc1ccc(CCNC(=O)N[C@@H](Cc2ccccc2)C(=O)O)cc1	-6.6	0.1	-0.1	5.1	-0.7%	-5.1
O=C(c1ccco1)N1CCN(c2ccc([N+](=O)[O-])cc2F)CC1	3.4	-0.3	11.3	3.9	0.2%	2.0
Cc1ccccc1N=C1NC(=O)/C(=C/c2cccn2-c2cccc(C(=O)O)c2)S1	9.4	1.3	6.2	-15.8	7.3%	2.3
CCS(=O)(=O)n1nc(-c2ccccc2)nc1N	6.1	-0.2	-12.8	-20.7	-0.1%	1.3
CCNC(=O)C1CCCN(Cc2ccc(C(=O)OCC)cc2)CC1 (configuration not stated)	6.8	0.6	-10.0	6.1	1.0%	-3.9
Cc1ccc(S(=O)(=O)N(C)C)cc1NC(=O)CN1C(=O)NC2(CCCCCCC2)C1=O	1.9	-0.4	-4.1	0.0	0.4%	-0.8
Cc1cc(NC(=O)CSc2nnc(NC(=O)C3CC(=O)N(c4ccccc4)C3)s2)no1 (configuration not stated)	8.4	0.5	8.3	0.7	3.6%	-1.5
(listing goes on)
SMILES	TRPML1 blocker	TRPML1 ag	D2 potentiator	Six1-Eya2 blk	PINK1 expr mod	D2 ag
CCOC(=O)c1ccc(NC(=O)CCS(=O)(=O)c2ccc3c(c2)oc(=O)n3C)cc1	14.2	-0.7	x	x	1.7%	x
Cc1cc(F)ccc1S(=O)(=O)Nc1ncnc2sc3c(c12)CCC3	3.2	0.4	-1.6	-6.2	1.2%	8.1
CC1CCN(S(=O)(=O)c2cccc(C(=O)Nc3nccs3)c2)CC1	49.4	4.3	-1.2	-15.3	2.7%[38.3 µM]	-0.3
C#Cc1cccc(C(=O)N2CCCC(Nc3cccc(F)c3)C2)c1 (configuration not stated)	8.3	-0.2	-19.0	-7.0	-1.2%	-4.6
CCN1CCN(S(=O)(=O)c2cccc([N+](=O)[O-])c2)CC1	32.0	-0.7	u	1.0	-0.7%	-1.5
O=C(COC(=O)c1ccc(S(=O)(=O)N2CCCC2)cc1)Nc1cccc(Cl)c1	-2.4	0.5	-0.8	7.4	-0.4%	-2.8
COc1cc(CN2C(=O)C(C)ON=C2c2ccccc2F)cc(OC)c1 (configuration not stated)	x	-1.2	-3.3	-3.4	0.1%	-3.8
CC(NC(=O)C1CCN(S(=O)(=O)c2ccc3nc4c(c(C(=O)O)c3c2)CCCC4)CC1)c1ccccc1 (configuration not stated)	-4.6&-8.2	-0.5&0.6	-2.6	-13.6	0.4%&-0.1%	0.9
Cc1cccc(C)c1NC(=O)C1CCCN1C(=O)NCc1ccccc1 (configuration not stated)	-5.3	-0.6	4.8	3.2	0.1%	0.7
Cc1ccc(C)c(N2CCN(CCCNC(=O)Nc3cc(Cl)ccc3C)CC2)c1	0.9	-0.9	x	x	0.2%	x
COc1cc(CC(=O)OCC(=O)Nc2cc(S(=O)(=O)N3CCCC3)ccc2Cl)cc(OC)c1OC	-13.3	1.7	-0.4	-4.5	x	0.7
O=c1c2[nH]c3cccc(Cl)c3c2ncn1CC1CCCO1 (configuration not stated)	-3.2	0.3	-3.6	-2.6	0.2%	-3.9
O=c1nc2n(c3c4c(sc13)CCC4)CCC2	-16.1	1.7	-18.2	-1.0	-2.1%	-0.4
Cc1ccc(S(=O)(=O)N(CC(=O)N2CCc3ccccc3C2)c2ccc(Cl)c(Cl)c2)cc1	7.4	2.2	-12.2	-4.3	2.4%	2.1
COc1ccc(S(=O)(=O)n2nc(C)c(S(=O)(=O)N3CCCCCC3)c2C)cc1	-9.9	-0.5	x	x	-0.9%	x
